High-throughput results: PubChem BioAssay, Broad Institute
Vaccinia inh = blocks a specific stage of Vaccinia orthopoxvirus infection, primary screen, cell-based, single point. activity change (mCherry), % (no concentration beside the values). Vaccinia-infected cells, mCherry/Venus stage reporter fluorescence; stronger effect = lower value; some inactives read as strong as hits. actives 0.01% (n = 89,000). AID 1053133, 2014;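 active means mCherry past -33% and 40 or more points under the early reporter, replicates agreeing; inconclusive means past -33% without that gap or agreement; tested in A549 cells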;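 further: scaled between vehicle wells and reference inhibitor wells; 23 nL library stock went into each well; one replicate is shown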
Vaccinia inh Venus = recorded beside Vaccinia inh, whose call it bears; activity change (Venus), %; measured here: Venus reporter, other viral stage;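 negative = less Venus signal; first of two replicates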
The depositor's hits bear a star; u = inconclusive; x = no result given. These rows are one share of the data, so the mix of outcomes need not match the whole.

Start of the data: the first five compounds, to show the layout:
SMILES	Vaccinia inh	Vaccinia inh Venus
C[C@H](CO)N1C[C@H](C)[C@@H](CN(C)S(=O)(=O)c2ccc(F)cc2)Oc2ccc(NC(=O)NC3CCCCC3)cc2CC1=O	-10.7	-0.4
CO[C@H]1CN(C)C(=O)c2ccc(NS(C)(=O)=O)cc2OC[C@@H](C)N(C(=O)C2CCCC2)C[C@H]1C	7.7	5.2
CN(C)C(=O)c1ccc(-c2ccc([C@H]3[C@H]4CN(C(=O)C5CCCC5)CC(=O)N4[C@H]3CO)cc2)cc1	5.7	4.9
COc1ccc(S(=O)(=O)Nc2ccc3c(c2)[C@H]2C[C@H](CC(=O)N(C)C)O[C@@H](CO)[C@H]2O3)cc1	10.7	13.6
C[C@H]1CN([C@@H](C)CO)C(=O)c2cccc(NS(C)(=O)=O)c2O[C@@H]1CN(C)C	2.8	8.4

The list itself, repeating the preview:
SMILES	Vaccinia inh	Vaccinia inh Venus
C[C@H](CO)N1C[C@H](C)[C@@H](CN(C)S(=O)(=O)c2ccc(F)cc2)Oc2ccc(NC(=O)NC3CCCCC3)cc2CC1=O	-10.7	-0.4
CO[C@H]1CN(C)C(=O)c2ccc(NS(C)(=O)=O)cc2OC[C@@H](C)N(C(=O)C2CCCC2)C[C@H]1C	7.7	5.2
CN(C)C(=O)c1ccc(-c2ccc([C@H]3[C@H]4CN(C(=O)C5CCCC5)CC(=O)N4[C@H]3CO)cc2)cc1	5.7	4.9
COc1ccc(S(=O)(=O)Nc2ccc3c(c2)[C@H]2C[C@H](CC(=O)N(C)C)O[C@@H](CO)[C@H]2O3)cc1	10.7	13.6
C[C@H]1CN([C@@H](C)CO)C(=O)c2cccc(NS(C)(=O)=O)c2O[C@@H]1CN(C)C	2.8	8.4
CC(=O)N[C@H]1C[C@@H]2O[C@H](CO)CC[C@@H]2O[C@@H]1CCc1ccc(C#CCc2ccccc2)cc1	-12.7	-7.2
C[C@@H]1CN([C@@H](C)CO)C(=O)c2cc(NC(=O)Nc3ccc4c(c3)OCO4)ccc2O[C@H]1CN(C)Cc1ccc(C(=O)O)cc1	14.0	6.6
COc1ccccc1NC(=O)N1[C@@H]2CNC[C@H]1[C@@H]2c1ccc(-c2ccc(C#N)cc2)cc1	-2.2	-15.8
CO[C@@H]1CC[C@@H]2CCOc3ccc(C#N)cc3C(=O)N(C)C[C@@H](C)C(=O)N(C)C[C@@H]1O2	9.1	4.5
Cc1ccc(S(=O)(=O)Nc2ccc3c(c2)CC(=O)N([C@H](C)CO)C[C@H](C)[C@@H](CN(C)Cc2ccc(Oc4ccccc4)cc2)O3)cc1	u	x
C[C@@H]1CCCCO[C@H](CN(C)S(=O)(=O)c2cccs2)[C@H](C)CN([C@H](C)CO)C(=O)c2cc(NS(=O)(=O)c3ccccc3)ccc2O1	-1.1	-2.4
COc1cccc(NC(=O)N[C@@H]2CC[C@H](CC(=O)NCc3ccccn3)O[C@H]2CO)c1	-3.8	-3.8
C[C@@H]1CN([C@H](C)CO)C(=O)c2cccc(NC(=O)c3ccc(-c4nccs4)cc3)c2O[C@@H]1CN(C)C(=O)Nc1ccc(C(F)(F)F)cc1	-32.4	-33.3
C[C@H](CO)N1C[C@H](C)[C@H](CN(C)CC2CCOCC2)Oc2ncc(-c3ccc(F)cc3)cc2C1=O	7.3	4.8
O=C(NCC[C@H]1CC[C@H](NS(=O)(=O)c2cccc(F)c2)[C@@H](CO)O1)C1CC1	-1.2	-2.9
CC=Cc1ccc2n(c1=O)C[C@@H]1[C@@H](CO)[C@H](C(=O)NCc3ccccc3F)N[C@H]21 (mixture of isomers)	6.4	7.1
CCN1[C@@H]2c3ccc(-c4cccc(OC)c4)c(=O)n3C[C@@H]2[C@@H](CO)[C@@H]1C(=O)N(C)C	5.3	6.0
O=C(Cc1ccccn1)N1CC(=O)N2[C@H](CO)[C@@H](c3ccc(-c4ccc(F)cc4)cc3)[C@H]2C1	-8.4	-4.4
O=C(NCc1ccccc1)[C@H]1[C@H](CO)[C@H]2Cn3c(cccc3=O)[C@@H]1N2Cc1ccccn1	0.6	5.5
C[C@H](CO)N1C[C@H](C)[C@H](CN(C)C(=O)Nc2cccc3ccccc23)Oc2ncc(Br)cc2C1=O	23.4	10.0
CO[C@H]1CN(C)C(=O)c2cc(NS(=O)(=O)c3ccccc3)ccc2OC[C@@H](C)NC[C@H]1C	9.6	9.6
COc1ccccc1C#Cc1ccc2c(c1)O[C@H](CN(C)Cc1cccnc1)[C@@H](C)CN([C@@H](C)CO)S2(=O)=O	u	x
C[C@@H]1CN([C@@H](C)CO)S(=O)(=O)c2ccc(C#Cc3ccc(F)cc3)cc2O[C@@H]1CN(C)CC1CC1	-34.4	-30.1
C[C@@H]1CCCCO[C@@H](CN(C)C(=O)Nc2ccccc2)[C@@H](C)CN([C@@H](C)CO)C(=O)c2cc(NC(=O)C3CCCCC3)ccc2O1	-1.7	-9.4
C/C=C/c1ccc2c(c1)O[C@H](CN(C)C(=O)COC)[C@@H](C)CN([C@H](C)CO)S2(=O)=O	14.0	9.0

Reformatted with two lines to a compound: 2 of the compounds above
Results follow in this order: Vaccinia inh, Vaccinia inh Venus
CO[C@H]1CN(C)C(=O)c2ccc(NS(C)(=O)=O)cc2OC[C@@H](C)N(C(=O)C2CCCC2)C[C@H]1C
  7.7, 5.2
CN(C)C(=O)c1ccc(-c2ccc([C@H]3[C@H]4CN(C(=O)C5CCCC5)CC(=O)N4[C@H]3CO)cc2)cc1
  5.7, 4.9

One compound at a time, as listed above. Order of screens: Vaccinia inh	Vaccinia inh Venus
`COc1cccc(NC(=O)N[C@@H]2CC[C@H](CC(=O)NCc3ccccn3)O[C@H]2CO)c1` in the list: -3.8	-3.8
`CC(=O)N[C@H]1C[C@@H]2O[C@H](CO)CC[C@@H]2O[C@@H]1CCc1ccc(C#CCc2ccccc2)cc1` in the list: -12.7	-7.2
`C[C@@H]1CN([C@H](C)CO)C(=O)c2cccc(NC(=O)c3ccc(-c4nccs4)cc3)c2O[C@@H]1CN(C)C(=O)Nc1ccc(C(F)(F)F)cc1` in the list: -32.4	-33.3

New compounds follow
SMILES	Vaccinia inh	Vaccinia inh Venus
Cc1ccc(S(=O)(=O)N(C)C[C@H]2Oc3ccc(NC(=O)Nc4ccccc4)cc3CC(=O)N([C@H](C)CO)C[C@@H]2C)cc1	-7.3	-6.2
C[C@H](CO)N1C[C@H](C)[C@H](CN(C)C(=O)Nc2ccc(F)cc2)Oc2ccc(NS(=O)(=O)c3ccccc3)cc2CC1=O	15.6	0.3
CN(C)C(=O)c1cccc(-c2ccc([C@H]3[C@H]4CN(C(=O)C5CCCCC5)CC(=O)N4[C@H]3CO)cc2)c1	-4.7	-2.2
COc1cccc(CNC(=O)C[C@H]2C=C[C@H](NC(=O)C3CCC3)[C@H](CO)O2)c1	-6.7	-1.0
O=C(C1CCCCC1)N1CC[C@@H]2[C@@H](CO)Nc3ccc(C#Cc4ccc(F)cc4)cc3[C@@H]21	u	x
O=C(N[C@@H]1CC[C@@H](CCNS(=O)(=O)Cc2ccccc2)O[C@H]1CO)c1ccccc1F	7.0	8.9
CC(C)NC(=O)Nc1ccc2c(c1)C(=O)N([C@@H](C)CO)C[C@H](C)[C@@H](CN(C)C(=O)NC(C)C)OCCCC[C@H](C)O2	12.7	5.7
C[C@@H]1CN([C@H](C)CO)C(=O)c2cc(NC(=O)Cc3cn(C)c4ccccc34)ccc2O[C@@H]1CN(C)CC1CCCCC1	u	x
CC(C)NC(=O)Nc1ccc2c(c1)C(=O)N([C@@H](C)CO)C[C@@H](C)[C@@H](CN(C)Cc1ccncc1)OCCCC[C@H](C)O2	32.8	15.0
C[C@@H]1CN([C@@H](C)CO)S(=O)(=O)c2ccc(C3=CCCC3)cc2O[C@H]1CN(C)CC1CCOCC1	3.6	1.7
C[C@@H]1CN([C@@H](C)CO)C(=O)c2cc(NS(=O)(=O)c3ccccc3)ccc2O[C@H]1CN(C)Cc1ccc(-c2ccccc2)cc1	u	x
CCCN(C)C[C@@H]1Oc2cc(C#Cc3ccccc3)ccc2S(=O)(=O)N([C@H](C)CO)C[C@@H]1C	-6.1	-7.7
C[C@H]1CN([C@@H](C)CO)C(=O)c2ccccc2-c2ccccc2CO[C@@H]1CN(C)Cc1cccc(C(=O)O)c1	25.2	12.6
O=C(C[C@@H]1CC[C@H]2[C@@H](COC[C@H](O)CN2Cc2ccccc2)O1)N[C@@H]1CCN(Cc2ccccc2)C1	-22.7	-8.7
O=C(C[C@@H]1C[C@H]2c3cc(NC(=O)NC4CCCC4)ccc3O[C@H]2[C@H](CO)O1)NCc1ccc(Cl)cc1	5.7	9.8
CC(C)c1cn(CC[C@@H]2CC[C@H](NC(=O)C3CCOCC3)[C@H](CO)O2)nn1	0.9	-6.9
Cc1noc(C)c1NC(=O)N(C)C[C@@H]1Oc2ncc(Br)cc2C(=O)N([C@@H](C)CO)C[C@H]1C	20.6	21.2
C/C=C/c1ccc([C@@H]2[C@H](CO)N(CC3CCCC3)C23CN(C(=O)COC)C3)cc1	-14.7	-7.7
COc1ccc([Si](C)(C)[C@H]2[C@H](CCO)O[C@@]3(C(=O)N(Cc4cccc(NC(=O)[C@H](C)O)c4)c4ccccc43)[C@@H]2C)cc1	u	x
CC(=O)N1CC2(C1)[C@H](c1ccc(-c3ccccc3C)cc1)[C@H](CO)N2C(=O)CC1CC1	-6.7	-6.4
CN(C)C(=O)c1cccc(-c2ccc([C@@H]3[C@@H](CO)N4CCCCN(CC5CCOCC5)C[C@@H]34)cc2)c1	9.6	4.4
COc1ccc(NC(=O)N(C)C[C@H]2Oc3c(NC(=O)CCCCCC(=O)Nc4ccccc4N)cccc3C(=O)N([C@H](C)CO)C[C@@H]2C)cc1	-12.7	-4.2
Cc1ccc(S(=O)(=O)N2C[C@@H](O)COC[C@H]3O[C@@H](CC(=O)NCCN4CCCCC4)CC[C@@H]32)cc1	-12.7	-10.8
C[C@H](CO)N1C[C@H](C)[C@@H](CN(C)S(C)(=O)=O)Oc2c(NC(=O)Nc3ccc(C(F)(F)F)cc3)cccc2C1=O	-12.7	-6.9
COc1cccc(-c2ccc([C@@H]3[C@H]4CN(C(=O)c5ccc(F)cc5)CCCCN4[C@H]3CO)cc2)c1	-27.7	-22.2
(listing goes on)
SMILES	Vaccinia inh	Vaccinia inh Venus
CO[C@@H]1CN(C)C(=O)c2cc(NC(=O)Nc3ccccc3)ccc2OC[C@H](C)N(CC2CC2)C[C@@H]1C	-10.3	-13.0
CO[C@H]1CN(C)C(=O)c2ccc(NC(C)=O)cc2OC[C@@H](C)N(C(=O)c2cccnc2)C[C@@H]1C	10.8	2.5
CN1C(=O)c2cc(NC(=O)NC3CCCC3)ccc2OC[C@@H]2O[C@@H](CC(=O)NC3CCC3)CC[C@@H]21	6.4	1.0
Cc1ccc(-c2ccc3c(c2)O[C@@H](CN(C)C(=O)CC2CC2)[C@H](C)CN([C@H](C)CO)S3(=O)=O)cc1	u	x
O=C(C[C@@H]1C[C@@H]2c3cc(NC(=O)Nc4ccccc4F)ccc3O[C@@H]2[C@H](CO)O1)NCCc1ccccc1	9.1	7.3
CO[C@@H]1CN(C)C(=O)c2ccc(NS(=O)(=O)c3cccc(Cl)c3)cc2OC[C@@H](C)NC[C@@H]1C	4.5	6.8
CC=Cc1ccc2n(c1=O)C[C@@H]1[C@@H](CO)[C@H](C(=O)N3CCc4ccccc4C3)[C@H]2N1CC (mixture of isomers)	-3.7	-0.3
CCC(=O)N1C[C@H](C)[C@H](OC)CN(C)C(=O)c2cc(NC(=O)C3CC3)ccc2OC[C@@H]1C	-3.1	-12.0
CN1C(=O)c2cc(NC(=O)C3CCC3)ccc2OC[C@H]2O[C@H](CC(=O)NCc3ccccc3F)CC[C@H]21	-7.4	-8.0
CC(C)CC#Cc1cnc2c(c1)C(=O)N([C@@H](C)CO)C[C@@H](C)[C@H](CN(C)C(=O)CCN1CCCCC1)O2	-3.0	-10.1
CCC(=O)N1CC2(C1)[C@H](c1ccccc1)[C@@H](CO)N2Cc1ccccc1OC	16.6	2.8
CC(C)NC(=O)Nc1ccc2c(c1)C(=O)N([C@@H](C)CO)C[C@@H](C)[C@H](CN(C)C(=O)Cc1ccccc1)OCCCC[C@@H](C)O2	5.5	-4.7

In the list so far, these have a Cl atom:
SMILES	Vaccinia inh	Vaccinia inh Venus
O=C(C[C@@H]1C[C@H]2c3cc(NC(=O)NC4CCCC4)ccc3O[C@H]2[C@H](CO)O1)NCc1ccc(Cl)cc1	5.7	9.8
CO[C@@H]1CN(C)C(=O)c2ccc(NS(=O)(=O)c3cccc(Cl)c3)cc2OC[C@@H](C)NC[C@@H]1C	4.5	6.8
